High-throughput results from PubChem BioAssay.
CSC inhib – cancer stem cell viability inhibitors, primary screen, luminescence; cancer stem cell-like cells viability; 300,000 compounds, 1.1% hits; inhibition, % at 7.5 µM; AID 2717, 2010;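 active means mean at 75% or more and at least half the replicates too; inconclusive means mean and replicates disagree; tested in HMLE shEcad cells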;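 further: 0% = median of negative and 100% = median of positive control wells; the first replicate is given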
eIF4H FP inh – human eIF4H binding inhibitors, primary screen, translation initiation inhibitor project, biochemical, uHTS, fluorescence polarization; Eukaryotic translation initiation factor 4H (Homo sapiens), Q15056; eIF4H fluorescence polarization binding assay; inhibition, % at 35 µM; 290,000 compounds, 0.94% hits;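 active means 50% or more with normal probe brightness, or confirmed in later tests; inconclusive means above 50% with abnormal brightness, or retests that disagree; inactive means below 50% or failed in later tests; about a fifth of its hits are not listed in these tables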;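 further: calls also rest on retests at 20 µM and on dose response follow-up; 0% = protein and probe with vehicle and 100% = probe without protein; strong numbers were not always called active; many hits fall short of the cut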
Rce1 inhib – yeast Rce1p protease inhibitors, primary screen, biochemical, fluorescence, cell-free homogeneous. calls only. CAAX prenyl protease 2 (Saccharomyces cerevisiae (strain ATCC 204508 / S288c)), Q03530. AID 2563, 2010. yeast membranes, quenched prenylated peptide cleavage fluorescence. 290,000 compounds, 0.27% hits;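 active means fall in fluorescence gain of 50% or more versus controls, with final raw signal at or below 3038400; inconclusive means same 50% fall but final raw signal above 3038400; inactive means fall in fluorescence gain under 50%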;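 further: plate controls were neutral control wells for no effect and wells lacking membranes for full effect; tested at 10 µM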
Target sequence (Q03530 whole entry, looked up): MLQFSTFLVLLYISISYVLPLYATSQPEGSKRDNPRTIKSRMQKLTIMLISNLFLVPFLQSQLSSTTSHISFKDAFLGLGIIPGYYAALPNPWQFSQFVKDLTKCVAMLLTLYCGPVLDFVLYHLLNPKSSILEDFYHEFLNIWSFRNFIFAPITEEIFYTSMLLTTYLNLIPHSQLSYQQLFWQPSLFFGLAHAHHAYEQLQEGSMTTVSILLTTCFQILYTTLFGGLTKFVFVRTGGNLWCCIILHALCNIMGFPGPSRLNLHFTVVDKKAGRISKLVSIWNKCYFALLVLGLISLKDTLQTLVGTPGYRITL
HIV Env fusion – inhibitors of HIV-1 Env-driven cell-cell fusion, primary screen, HeLa-JRFL effector, CEM21 target cells, luciferase | inhibition, % at 12.3 µM | 360,000 compounds, 1.1% hits;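 active means mean replicate inhibition score of at least 50 and every replicate individually at or above 50; inconclusive means only one of the two criteria met; inactive means mean below 50 and not all replicates reaching 50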;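 further: 0% = plate neutral controls and 100% = maraviroc near 300 nM; one replicate is shown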
UUG fidelity – modulators of yeast start codon fidelity, primary screen, whole organism, S. cerevisiae, single point, plate reader; 350,000 compounds, 0.13% hits; AID 602363, 2012; S. cerevisiae UUG-firefly luciferase reporter, luminescence/redox ratio; activity score, % at 18.7 µM;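 active means replicate mean at a twofold rise or more, about +100% in these data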;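 further: firefly luciferase made from a UUG start codon reports start codon fidelity; reporter light over untreated wells divided by growth signal over untreated wells; some hits fall short of that in this replicate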
MT1-MMP act inh – blockers of MT1-MMP proenzyme processing, primary screen, HT1080 RFP-PRO-GFP cells, GFP/RFP fluorescence | GFP/RFP ratio change, % at 20 µM | 360,000 compounds, 0.061% hits | Matrix metalloproteinase-14 (Homo sapiens), P50281 | AID 651647, 2012 | GFP/RFP ratio fluorescence, overnight; percent of plate control window, DMSO zero;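 active means GFP/RFP ratio change of at least 30% with cell ATP level not reduced by more than half and red fluorescence within 50% of control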; further: strong numbers were not always called active
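Test system: HT1080 cells expressing an RFP-PRO-GFP fluorescent reporter construct / Compound dosing: single-point 20 µM compound, 1% DMSO / Schedule: cells overnight before dosing, compound overnight, 37 °C, 5% CO2 / Evaluation: GFP/RFP fluorescence ratio / Control set: DMSO and RFP-L50D-GFP cell wells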
PABP FP inh – PABP poly(A) RNA binding inhibitors, primary screen, biochemical, fluorescence polarization, uHTS | inhibition, % at 35 µM | Polyadenylate-binding protein 1 (Homo sapiens), P11940 | 290,000 compounds, 1% hits;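 active means 50% or more with normal probe brightness, or confirmed in later tests; inconclusive means above 50% with abnormal brightness, or retests that disagree; inactive means below 50% or failed in later tests; about a fifth of its hits are not listed in these tables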;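 further: calls also rest on retests at 20 µM and on dose response follow-up; controls were probe without protein and protein plus probe with vehicle; some compounds called inactive have numbers as strong as hits; many hits fall short of the cut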
Target sequence (P11940 whole entry, looked up): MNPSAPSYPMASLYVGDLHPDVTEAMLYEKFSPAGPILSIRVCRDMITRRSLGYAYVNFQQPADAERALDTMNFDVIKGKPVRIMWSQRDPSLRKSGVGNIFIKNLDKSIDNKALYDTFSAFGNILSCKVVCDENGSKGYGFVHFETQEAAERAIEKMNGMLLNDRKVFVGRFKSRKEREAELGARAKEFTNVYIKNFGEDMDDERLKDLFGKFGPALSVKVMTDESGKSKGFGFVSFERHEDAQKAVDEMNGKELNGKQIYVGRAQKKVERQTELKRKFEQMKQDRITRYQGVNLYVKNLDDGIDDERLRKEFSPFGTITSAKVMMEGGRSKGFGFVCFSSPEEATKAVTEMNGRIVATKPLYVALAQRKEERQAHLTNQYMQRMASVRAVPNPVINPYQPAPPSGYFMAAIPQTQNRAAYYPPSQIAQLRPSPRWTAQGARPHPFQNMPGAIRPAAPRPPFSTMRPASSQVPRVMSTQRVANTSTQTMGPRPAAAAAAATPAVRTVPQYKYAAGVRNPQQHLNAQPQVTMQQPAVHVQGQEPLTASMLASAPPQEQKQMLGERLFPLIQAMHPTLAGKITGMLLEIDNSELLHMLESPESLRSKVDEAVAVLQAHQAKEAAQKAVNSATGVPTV
eIF4H FP inh retest – also measured in eIF4H FP inh; calls as there; inhibition, %; compound at 20 µM; confirmation average;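 mean of two retest wells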
PABP FP inh retest – also measured in PABP FP inh; calls as there; inhibition, %; compound at 20 µM; confirmation repeats;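 mean of two retest wells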
MT1-MMP act inh RFP – second read-out of MT1-MMP act inh, no call of its own (marks repeat the call); RFP signal change, %; measured here: RFP expression control read;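 0 = vehicle wells; hits needed this value within 50% of zero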
Starred values were filed as active, the others as inactive; i = inactive; ? = inconclusive; / = no result given. Hits appear at their usual frequency. Share with any hit: about 2.9%.

SMILES	CSC inhib	eIF4H FP inh	Rce1 inhib	HIV Env fusion	UUG fidelity	MT1-MMP act inh	MT1-MMP act inh RFP	PABP FP inh	others
COc1cc(/C=C2\CCCc3c2nc2ccccc2c3C(=O)O)cc(Br)c1O	7	-5	i	12	-3	-6	4	42
CN(C)CCNC(C(=O)Nc1cc(Cl)cc(Cl)c1)c1ccccc1 (centres undefined)	/	-7	i	-4	/	5	1	14
CCOC(=O)C1(CCOc2ccccc2)CCN(Cc2ccc(OC)c(O)c2)CC1	11	4	i	7	-5	4	-5	3
COc1cccc(-c2cc(NC(C)=O)c3ncc(-c4cccc(C(C)=O)c4)n3c2)c1	/	/	/	-63	-7	1	-3	/
COc1ccc(C(CNC(=O)c2ccc(S(=O)(=O)N3CCCC3)cc2)N2CCOCC2)cc1 (centres undefined)	23	-2	i	8	-8	-2	0	6
Cc1ccc(C2NC(=O)c3c(sc4c3CCN(C)C4)N2)s1 (centres undefined)	3	?	i	/	/	-104	15	?
CC(=O)Nc1c2c(nn1-c1ccccc1)CS(=O)C2 (centres undefined)	-16	72	i	16	-12	-1	5	-10	eIF4H FP inh retest=-7;PABP FP inh retest=4
CCOC(=O)C1=CNS(=O)(=O)NC1c1ccccc1 (centres undefined)	/	/	/	-5	-2	-3	0	/
CCOc1ccc(C(=O)NCC(=O)NCCOc2ccc(C)cc2)cc1	-3	-3	i	4	-9	0	0	-1
NNc1nc2ccc(Cl)cc2s1	24	71	i	-21	/	4	-3	2	eIF4H FP inh retest=4;PABP FP inh retest=15
CCOc1ccc(NC(=O)CSc2nnc(CCNC(=O)c3ccc(OC)cc3)n2CC)cc1	/	1	i	-43	-24	0	2	2
O=C(NCC1CC1)Nc1ccc(Cl)cc1	2	1	i	-19	6	-4	-1	-3
CC(C)NCCCCOc1ccc(Br)cc1Cl	7	3	i	-13	/	0	3	22
Cc1ccc2nc(C)cc(C(=O)OCC(=O)Nc3cccnc3Cl)c2c1	-12	-12	i	5	/	-1	-2	0
CC(C)CC(N=C1NC(C)(C)Cc2ccccc21)C(=O)O (centres undefined)	/	-7	i	6	-13	2	4	-12
COc1ccc2c(c1)c(CC(=O)Nc1cc(C)ccc1C)c(C)n2C(=O)c1ccc(Cl)cc1	9	-3	i	20	-21	-5	-11	10
Cc1cc(=O)[nH]c(NC(=O)Cc2ccccc2)n1	/	/	/	4	6	0	0	/
O=C1C=Cc2ccccc2/C1=C/c1[nH]c(=O)[nH]c1O	-3	13	i	15	-13	-9	4	6
O=C(Oc1cccc2cccnc12)c1ccc(Br)o1	/	12	i	/	-14	-2	4	-2
CC(CCc1ccccc1)NC(=O)CCCCCNc1nc(=S)[nH]c2ccccc12 (centres undefined)	7	0	/	/	/	/	/	4
CC(C)C1C(C#N)=C(N)Oc2n[nH]c(C(C)(C)C)c21 (centres undefined)	-12	-8	/	/	8	-2	-6	12
COCc1c(C(=O)N/N=C/c2ccco2)nnn1-c1nonc1N	/	-9	i	10	-22	0	2	13
O=C(NCc1ccccc1)N1CCC(CO)(CCc2ccccc2)CC1	-4	-8	i	14	-4	6	3	-4
CCOC(=O)N1CCC(N2CCN(S(=O)(=O)c3ccc(NC(C)=O)cc3)CC2)CC1	-8	5	i	/	-1	3	-5	11
COC(=O)c1c(N(S(C)(=O)=O)S(C)(=O)=O)sc2c1CCN(c1ncc(C(F)(F)F)cc1Cl)C2	-11	9	i	-37	-15	3	4	25
Cn1c(NCc2ccccc2F)nc2cc(-c3ccccc3)sc2c1=O	/	/	/	7	-16	4	-12	/
COc1ccccc1/C=C/CN1CCN(Cc2ccc(F)cc2)C(CCO)C1 (centres undefined)	7	0	i	-9	1	2	1	-3
Cc1ccc(CSC2=NCCN2C(=O)c2ccc(S(=O)(=O)N(C)C)cc2)cc1	-29	-1	i	-40	/	0	4	1
ON=C1CCC2CCCCC2C1 (centres undefined)	/	/	/	-60	-10	1	4	/
Cc1cccc(N2C(S)=C(C#N)C(=O)NC2c2cccs2)c1 (centres undefined)	-4	6	/	-8	-11	-3	6	-8
CCOC(=O)C1=C(C)Nc2ccccc2N=C1NC(=O)c1cc(C)on1	-11	/	/	/	-11	1	4	/
Fc1cccc(Nc2ncnc3sccc23)c1	41	-1	i	1	-9	-4	-5	8
CCOC(=O)c1nnn(-c2nonc2N)c1CNC(C)C	-4	-8	i	25	3	-12	0	2
Cc1cc(S(=O)(=O)N2CCCCC2)ccc1OCC(=O)N1CCCC1	8	2	i	-11	-3	-2	1	-5
Cc1nnc(SCC(=O)Nc2cc(S(=O)(=O)N3CCCC3)ccc2Cl)n1C1CC1	7	/	/	/	-13	-2	-3	/
O=C(CNC(=O)c1ccc(Cl)cc1)NCc1ccccn1	/	/	/	6	-17	0	2	/
N#Cc1c(N)nc(SCC(=O)NCCc2ccccc2)c(C#N)c1-c1cccs1	6	0	i	/	-12	2	-4	6
O=C(CCC(=O)Nc1ccc(Br)cc1)N/N=C/c1ccccc1F	7	4	i	10	-19	7	6	8
CCCCN(CCCC)C(=O)CSc1nnc(-c2cc(OC)c(OC)c(OC)c2)o1	/	0	i	41	1	2	-11	17
CSc1nc(C)cc(SCC(=O)Nc2ccccc2)n1	/	0	i	-8	/	8	-3	2
COCCNC(=O)Cn1nc(-c2ccccc2)c2ccccc2c1=O	-8	-6	i	2	-16	3	6	-2
Cc1ccc(N2C(=O)Nc3ccccc3C2(O)C(=O)N2CCN(c3ccccn3)CC2)cc1C (centres undefined)	-11	6	i	-30	-5	-2	-1	-4
O=C(O)c1cccc(NC(=S)NC(NC(=O)c2ccco2)C(Cl)(Cl)Cl)c1 (centres undefined)	-10	-11	i	-25	/	-11	3	20
O=C(NCc1cccs1)C1CC(c2ccccc2O)=NO1 (centres undefined)	41	-3	i	/	6	6	1	4
Cn1c(SCC(=O)N/N=C/c2ccncc2)nc2ccccc21	-2	6	i	-114	/	2	3	-10
N#Cc1ccc(COC(=O)c2cccnc2Cl)cc1	-8	-2	i	-36	-26	5	6	-2
COc1cccc2c(O)c(-c3ccccc3)c(=O)[nH]c12	-13	/	i	2	-19	-4	-1	/
COC(=O)CCC(=O)OC1(C)C(=O)C=C2C=C(c3ccsc3)OC=C2C1=O (centres undefined)	-3	/	i	/	-13	16	21	/
COc1ccc(Cl)cc1S(=O)(=O)Nc1ccc(Cl)cn1	-12	-12	i	0	/	-3	2	3
CCOC(=O)c1c(C)[nH]c(C)c1C(=O)COC(=O)c1ccc(OC)c(OC)c1	-14	-7	i	7	-9	-2	0	4
C[n+]1cn(CC(O)COCc2ccccc2)c2ccccc21 (centres undefined)	-17	-1	i	-23	0	1	7	-12
CN(C(=O)COC(=O)c1ccc(Br)c(S(=O)(=O)N2CCOCC2)c1)C1CCCCC1	-1	/	/	2	14	12	-11	/
Cc1nc(=O)c(-c2ccccc2)c(C)n1-c1cccc(/C=C/C(=O)O)c1	-19	5	i	-16	/	2	1	2
NS(=O)(=O)c1cccc(NC(=O)CSc2nnc(-c3ccncc3)n2C2CC2)c1	-13	/	/	/	-8	5	3	/
CCCS(=O)(=O)NC(=O)C1(C)CCN(C(=O)Cc2ccc(F)cc2)C1 (centres undefined)	/	/	/	1	-15	-2	5	/
O=C(CCNC(=O)C1CCN(S(=O)(=O)c2ccccc2)CC1)Nc1ccccc1	9	-3	i	-3	-10	0	8	6
CCC(C)N(C(=O)c1csnn1)C(C(=O)NC1CCCC1)c1ccccc1F (centres undefined)	-11	-4	/	10	-8	0	4	10
CC(C)(C)OC(=O)N1CCC(C(=O)Nc2ccc(C(=O)N3CCCCC3)cc2)CC1	/	/	/	4	12	6	-2	/
N#Cc1c(-c2ccc(Cl)cc2)c2c([nH]c1=S)CCCC2	-4	-6	i	-5	0	0	-2	-9
CCOC(=O)c1cc(NC(=O)CCC(=O)O)ccc1N1CCCCC1	3	-12	i	14	7	-3	0	9
Next section
SMILES	CSC inhib	eIF4H FP inh	Rce1 inhib	HIV Env fusion	UUG fidelity	MT1-MMP act inh	MT1-MMP act inh RFP	PABP FP inh	others
CCOc1ccc(Cn2nnc(C(=O)NCCc3ccc(Cl)cc3)c2N)cc1	-7	-5	i	5	-3	-4	1	1
COCCN=c1scc(-c2cc(OC)c(OC)c(OC)c2)n1/N=C/c1c(C)[nH]c2ccccc12	115*	-1	i	7	-15	-20	-4	-10
CC(=O)c1cc(C(=O)NC2CCCc3c2cnn3-c2cc(C)cc(C)c2)[nH]n1 (centres undefined)	-5	3	i	5	-13	-3	-6	-8
Cn1c(-c2ccccc2)cnc1NCc1ccc(F)cc1	/	-2	i	-21	-8	2	4	6
Cc1ccc2c(c1)sc1nncn12	/	/	/	8	-22	-1	5	/
CC(=O)Nc1ccccc1-c1ccccc1[N+](=O)[O-]	/	/	/	19	4	2	1	/
CSc1nc(-c2ccc(Cl)cc2)c(C#N)c(=O)n1C	7	-9	i	-5	-5	-6	-5	1
CCOc1ccc(C(=O)NCc2ccncc2)cc1	30	0	i	/	-21	2	8	11
O=[N+]([O-])c1cc(Br)c(OCc2nnc(-c3ccccc3)o2)c(Br)c1	13	-8	i	1	-3	-3	-4	2
CCOC(=O)CCCCCC(=O)Nc1ccc2c(c1)C(=O)N([C@@H](C)CO)C[C@@H](C)[C@H](CN(C)C(=O)c1ccncc1)OCCCC[C@H](C)O2	/	/	/	15	4	3	6	/
COc1cccc(Cn2c(NCC(C)C)nc3c2c(=O)n(C)c(=O)n3C)c1	/	3	i	-39	2	-3	0	2
CCOC(=O)C1C(=O)C=C(/C=C/c2ccc(N(C)C)cc2)CC1c1ccccc1 (centres undefined)	36	?	i	-5	/	0	69	-6
CCCCn1c(SCC(=O)Nc2cc(C)on2)nc2c1c(=O)n(C)c(=O)n2C	-14	11	i	-14	-10	3	-4	-1
CC1CCCC(C)N1C(=O)CSc1nnc(CSc2ncccn2)n1C (centres undefined)	-12	-5	i	5	-6	2	4	-5
CCOC(=O)C1CCN(C(=O)C(CC)c2ccccc2)CC1 (centres undefined)	-3	-5	i	-6	/	13	4	1
O=C(Nc1ccccc1N1CCN(C(=O)c2ccc(Cl)cc2)CC1)c1cc(Br)ccc1Cl	8	-1	i	-15	-5	-6	-6	-2
CNS(=O)(=O)c1cc(NC(=O)CCNC(=O)c2ccco2)ccc1C	-13	9	i	0	-8	2	-1	0
CCc1ccc(OCC(=O)NNC(=O)c2ccc(NC(=O)C3CC3)cc2)cc1	-1	-26	/	/	0	-1	2	-33

In the list so far, two have a nitro group on carbon:
SMILES	CSC inhib	eIF4H FP inh	Rce1 inhib	HIV Env fusion	UUG fidelity	MT1-MMP act inh	MT1-MMP act inh RFP	PABP FP inh	others
CC(=O)Nc1ccccc1-c1ccccc1[N+](=O)[O-]	/	/	/	19	4	2	1	/
O=[N+]([O-])c1cc(Br)c(OCc2nnc(-c3ccccc3)o2)c(Br)c1	13	-8	i	1	-3	-3	-4	2
